Rango release inh = inhibition of RanGTP-driven Rango-importin beta dissociation | Biochemical FRET Rango-importin beta, RanGTP-induced dissociation | actives 0.071% (n = 340,000) | Potency, µM (top dose mostly 46.1 µM), for the others: at the top dose activity change, negative = inhibition | O95149+P62826; active means falling FRET ratio curve, often poorly fitted, with flat reads before Ran was added; inconclusive means other falling curves, or compound fluorescence or quenching; inactive means flat or rising ratio curve;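 further: potency means the concentration at half of the fitted maximal effect; % of control where 0% means no effect; nearly all actives have a fitted effect of over 45% in size; -100% = wells without RanGTP and RCC1; the record marks most hits as doubtful in a second field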
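FRET read at 45 min, room temperature: inhibitors block the CFP/YFP signal rise when RanGTP (0.6 uM Ran, 2 mM GTP, 0.2 uM RCC1) frees Rango (0.1 uM) from importin beta (0.25 uM). Pre-read after 5 min compound exposure flags interference.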
Rango-impB inh = Rango-importin beta binding inhibition; Q14974; Rango CFP/YFP FRET sensor + importin beta, 45 min; Potency, µM (doses to about 92.2 µM), for the others: at the highest dose inhibition of complex formation; actives 0.031% (n = 340,000); active = rising FRET ratio curve, often small or poorly fitted; inconclusive = mostly compound fluorescence or quenching in the first reads; inactive = flat curves in all reads;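 further: potency means the concentration at half of the fitted maximal effect; 0% = DMSO wells and 100% = buffer wells lacking importin beta; nearly all actives have a fitted effect of over 15% in size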
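FRET biosensor Rango (snurportin 1 IBB between N-terminal EYFP and C-terminal Cerulean), 50 nM in PBS/1 mM DTT/0.02% Tween-20/0.1% BSA, preincubated 5 min RT with compound; 0.125 microM importin beta added, 45 min RT, CFP/YFP FRET ratio read.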
miR-21 FLuc = miR-21 reporter, rising signal | HeLa miR-21 FLuc reporter, luciferase, 48 h | Potency, µM (doses to about 38.3 µM), for the others: top-dose reporter change, positive = more light | 340,000 tested, under 10 active | AID 2288; active = well fitted rising curve with a large enough effect; inconclusive = small, poorly fitted or top-dose-only effect; inactive = no such curve, though single readings can be large or run the other way;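 further: % of control where 0% means no effect; miR-21 action dims this reporter so a rising signal means less miR-21 action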
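HeLa miR-21-FLuc reporter line, endogenous miR-21; 2000 cells/well in DMEM/10% FBS; compound titration up to ~40uM final, 48 h, 37 degree Celsius; luciferase detection reagent, 15 min lysis, CCD luminescence.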
GLA inh pH 4.5 = blocks human alpha-galactosidase A at pH 4.5; AID 1467; activity change, negative = inhibition, % at 105 µM; 230,000 tested, under 10 active; purified enzyme, 4-MU-alpha-Gal fluorescence, pH 4.5; P06280; inconclusive = small, poorly fitted or top-dose-only inhibition, or a rising curve; inactive = flat fitted curve, though single readings scatter; no compound was filed as active;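 further: 0% = full activity with enzyme and -100% = basal without enzyme; dose as in the result columns while the protocol names 77 µM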
Target sequence (P06280 whole entry, looked up): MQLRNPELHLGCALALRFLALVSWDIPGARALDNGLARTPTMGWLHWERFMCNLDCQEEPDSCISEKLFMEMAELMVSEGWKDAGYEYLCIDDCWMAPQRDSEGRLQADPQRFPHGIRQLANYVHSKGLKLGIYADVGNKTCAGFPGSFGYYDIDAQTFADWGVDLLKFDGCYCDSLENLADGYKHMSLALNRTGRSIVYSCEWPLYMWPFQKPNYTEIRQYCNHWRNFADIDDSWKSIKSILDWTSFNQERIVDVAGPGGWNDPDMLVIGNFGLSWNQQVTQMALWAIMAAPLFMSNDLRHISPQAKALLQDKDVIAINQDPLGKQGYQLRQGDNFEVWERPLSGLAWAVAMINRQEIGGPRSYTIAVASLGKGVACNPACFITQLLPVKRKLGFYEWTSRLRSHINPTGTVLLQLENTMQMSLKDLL
* hit, by the source's call; ? = inconclusive; nt = no result given; & = joins results of further samples.

SMILES	Rango release inh	Rango-impB inh	miR-21 FLuc	GLA inh pH 4.5
COc1ccc(C(=O)NCc2ccc(N3CCN(C(=O)OC(C)(C)C)CC3)cc2)cc1	3%	0.2%	8%	-2
COc1ccc2nc(NC(=O)c3ccc(F)cc3)sc2c1	31%	2.4%	-47%	nt
NNc1ccc(S(=O)(=O)N2CCCCC2)cn1	8%	-4.6%	-3%	5
O/N=C/c1cccn1-c1ccc(O)cc1	-9%	0.3%	-1%	6
C(=N/Nc1cc(N2CCOCC2)nc(N2CCOCC2)n1)/c1ccccc1	2%	3.6%	-8%	-8
CCOc1ccc(OCCSc2nnnn2C2CCCCC2)cc1	-14%	3.6%	-12%	3
COc1cccc(C(=O)Nc2nnc(SCC(=O)NC3CCCC3)s2)c1	4%	1.1%	-17%	nt
COc1ccc(-n2c(SCC(=O)NCc3cccs3)nc3[nH]ncc3c2=O)cc1	25%	-1.2%	-1%	2
O=C(COC(=O)Cc1ccc(Br)cc1)NCc1ccc2c(c1)OCO2	2%	-0.2%	nt	nt
COCCN(C(=S)Nc1ccccc1OC)C(C)c1cccs1 (stereo not drawn)	15%	0.3%	-12%	5
CCN(CC)c1ccc(S(=O)(=O)N2CCOCC2)cc1NC(=O)Nc1ccccc1	-6%	0.4%	nt	nt
Cc1cccc(C(=O)Oc2ccc(/C=N/NC(=O)c3ccccc3O)cc2)c1	4%	0.7%	-49%	7
COC(=O)CC(c1ccc(OC)c(OC)c1)c1ccc(OC)c(OC)c1	1%	-1.4%	-9%	-8
CCC(C)(C)NC(=O)C(c1cccn1C)N(C(=O)Cn1nnc2ccccc21)c1ccc(OC)cc1OC (stereo not drawn)	-8%	-3.1%	-10%	-14
O=C(NCCCn1ccnc1)c1cc(-c2cccs2)on1	-4%	?	-125%	3
COCCn1c(C)cc2c(c1=O)C(c1ccco1)C(C#N)=C(N)O2 (stereo not drawn)	-24%	?	-2%	-1
CC(C)=CCC/C(C)=C/CNC(=O)C[C@H]1C[C@H](C(=O)N2CCCCC2)[C@@]2(CCc3ccccc3)c3[nH]c4cc(-c5ccco5)ccc4c3CCN2C1=O	-22%	?	nt	nt
CCOC(=O)C1=CNS(=O)(=O)NC1c1ccc(C[C@H](NC(=O)CNC(=O)CCc2ccccc2)C(N)=O)cc1 (stereo partly drawn)	1%	2.4%	nt	nt
Cn1cc(CN2CCC(C(=O)Nc3cccc(-c4cccc(F)c4)c3)CC2)cn1	-11%	6.0%	-10%	nt
COC(=O)c1nnn(-c2nonc2N)c1CSCCO	8%	-0.6%	0%	-4
CC1(OC(=O)C2CCCC2)C(=O)C=C2C=C3CCCCN3C=C2C1=O (stereo not drawn)	1%	?	7%	8&-3
CCOC(=O)CSc1nnc(-c2ccc(S(=O)(=O)N3CCOCC3)cc2)n1-c1ccccc1	-12%	-3.3%	-1%	2
CCOC(=O)N1CCN(S(=O)(=O)c2ccc(C(=O)N(CCCN(C)C)c3nc4ccc(OC)cc4s3)cc2)CC1	2%	-1.1%	-2%	nt
CN(C)c1ccc(NC(=O)CN2C(=O)CC(c3ccccc3)=Nc3ccccc32)cc1	6%	-1.9%	0%	4
CN(CCO)c1cnccn1	10%	0.0%	-7%	5

Next part
SMILES	Rango release inh	Rango-impB inh	miR-21 FLuc	GLA inh pH 4.5
CCN1/C(=C/C=C/c2oc3ccc4ccccc4c3[n+]2CC)Oc2ccc3ccccc3c21	?	?	21%	-20
CN(C)C(=O)CSc1nnc(Cc2ccc3c(c2)OCO3)o1	0%	2.9%	-11%	8
CCOC(=O)C(C)/C(C)=N/NC(=O)CCC(=O)Nc1cc(C)ccc1C (stereo not drawn)	13%	1.5%	-1%	5
C[C@@H](NC(=O)c1nc[nH]c1C(=O)N[C@@H](CCCCNC(=O)OC(C)(C)C)C(=O)OC(C)(C)C)c1ccccc1	0%	0.6%	?	?
CC1CC(C)CN(CCCNC(=O)c2cc3c(s2)-c2ccccc2OC3)C1 (stereo not drawn)	?	-2.0%	?	nt
CN(CP(=O)(O)CN(C)S(C)(=O)=O)S(C)(=O)=O	4%	-3.3%	-2%	5
c1ccc(COc2ccc(CNCc3cccs3)cc2)cc1	-13%	4.3%	-21%	2
ClCc1cc2ccccc2nc1Cl	9%	-3.9%	0%	7
CC(=O)Nc1ccc(NC(=O)COC(=O)COc2ccc3ccccc3c2)cc1	6%	-0.2%	nt	nt
Cc1ccc2[nH]c3c(c2c1)CC/C(=C/c1ccccc1)C3=O	-14%	-1.8%	-35%	-2
CN(Cc1ccccc1)C(=O)COC(=O)c1cc(-c2ccc(Cl)s2)nc2ccccc12	-9%	?	-16%	12
COC(=O)CC1C(=O)NCCN1C(=O)c1cc([N+](=O)[O-])ccc1Cl (stereo not drawn)	7%	1.7%	1%	nt
O=C(NC1CCCCC1)c1n[nH]c2c1CCCCC2	-20%	4.1%	nt	nt
COc1ccc2[nH]c3c(c2c1)CCN1C(=O)N([C@@H](C)C(=O)NC2CCCC2)C(=O)[C@]31C	1%	0.1%	0%	nt
O=c1c2cc(NC(=S)NCc3ccccn3)ccc2nc2n1CCCCC2	15%	1.0%	-5%	-1
O=C(CCC1CCCCC1)Nc1ccccc1O	10%	2.8%	-58%	-9
CC1=NN(C(C#N)c2ccc(F)cc2)C(c2ccccc2)C1 (stereo not drawn)	21%	-2.9%	-9%	nt
COc1ccc(CCc2ccc3ccccc3n2)cc1	1%	0.8%	nt	nt
COc1ccc(NS(=O)(=O)c2cccc(C(=O)N/N=C(\C)c3ccc(-n4ccnc4)cc3)c2)cc1	?	0.2%	-1%	-1
O=C(Nc1ccc(Br)cc1)NC1CCCCCCC1	0%	-1.7%	-38%	nt
O=C(COC(=O)c1ccc2ccccc2n1)Nc1ccccc1Br	-1%	-0.6%	nt	nt
O=C1NC(=O)/C(=C\c2ccc(Br)o2)S1	-1%	-1.2%	-27%	nt
C(=N\c1nc2ccccc2n1CCN1CCCCC1)/c1ccc2c(c1)OCO2	-14%	-2.2%	-17%	-8
COc1ccc(-c2cc(-c3ccc(OC)cc3)[nH]n2)cc1	11%	-2.0%	-45%	1
CCOC(=O)c1cc2c(=O)n3ccccc3nc2n(CCCOC)c1=NC(=O)c1ccncc1	?	?	3%	21

4 of the compounds above, bar-delimited:
Compound | Rango release inh | Rango-impB inh | miR-21 FLuc | GLA inh pH 4.5
O=C(COC(=O)Cc1ccc(Br)cc1)NCc1ccc2c(c1)OCO2 | 2% | -0.2% | nt | nt
CN(Cc1ccccc1)C(=O)COC(=O)c1cc(-c2ccc(Cl)s2)nc2ccccc12 | -9% | ? | -16% | 12
c1ccc(COc2ccc(CNCc3cccs3)cc2)cc1 | -13% | 4.3% | -21% | 2
COc1ccc2nc(NC(=O)c3ccc(F)cc3)sc2c1 | 31% | 2.4% | -47% | nt

Structural class, those above containing fluorine (3)
SMILES	Rango release inh	Rango-impB inh	miR-21 FLuc	GLA inh pH 4.5
COc1ccc2nc(NC(=O)c3ccc(F)cc3)sc2c1	31%	2.4%	-47%	nt
Cn1cc(CN2CCC(C(=O)Nc3cccc(-c4cccc(F)c4)c3)CC2)cn1	-11%	6.0%	-10%	nt
CC1=NN(C(C#N)c2ccc(F)cc2)C(c2ccccc2)C1 (stereo not drawn)	21%	-2.9%	-9%	nt

More compounds:
SMILES	Rango release inh	Rango-impB inh	miR-21 FLuc	GLA inh pH 4.5
O=C(NC1CCCC1)c1nc2c(nnn2Cc2cccc(Cl)c2)c(=O)[nH]1	7%	?	-11%	0
COc1ccc2[nH]c(C)c(CCN(Cc3cccs3)C(=S)Nc3ccccc3OC)c2c1	-11%	?	16%	-5
CCOC(=O)C1CCN(S(=O)(=O)CCNC(=O)c2ccc3c(c2)OCO3)CC1	2%	5.5%	nt	nt
CCOc1ccccc1NC(=S)N1CCN(c2ccccc2)CC1	11%	0.2%	-7%	nt
O=C(Nc1ccc(F)cc1)c1ccccc1	3%	-0.4%	-42%	2
Cc1ccc(-c2nnc(N)s2)cc1	3%	2.8%	-49%	5
Cc1nc(CN2CCCCC2)cc(=O)[nH]1	-10%	3.8%	3%	8
CN(C)CCN1C(=O)c2oc3ccc(Cl)cc3c(=O)c2C1c1cccc(Br)c1 (stereo not drawn)	-7%	-5.5%	-10%	-2
COc1cc(C)ccc1OCCOc1c(C)cccc1Cl	6%	-1.6%	-47%	-3
COc1ccccc1CNC(=O)C(=O)NCC1OCCN1C(=O)c1cccs1 (stereo not drawn)	2%	-0.4%	-8%	-6
COc1ccc(S(=O)(=O)N2CCCCC2)cc1NC(=O)C1COc2ccccc2O1 (stereo not drawn)	-2%	2.1%	nt	nt
COc1ccc(Cl)cc1NC(=O)CN(C)C(C)C(=O)NCC1CCCCC1 (stereo not drawn)	3%	-3.5%	-5%	6
Cc1ccc(-n2c(SCC(=O)NNC(=S)Nc3ccccc3)nc3ccccc3c2=O)cc1	4%	4.0%	-9%	-1
CCOc1ccccc1NC(=O)CN1CCN(C(=O)C2CCCO2)CC1 (stereo not drawn)	-2%	-0.1%	-4%	nt
NC(=O)c1cc([N+](=O)[O-])ccc1NCc1cccc([N+](=O)[O-])c1	-4%	0.0%	nt	nt
C/C(=N\NC(=O)C(N)=O)c1ccc(O)cc1O	?	?	2%	-5
Cc1ccc(Cl)cc1N1CCN(C(=O)CSc2ccsc2[N+](=O)[O-])CC1	-6%	4.2%	-11%	-1
COc1ccccc1N1CCN(C(=O)CCC(=O)N2CCN(c3ccc(F)cc3)CC2)CC1	-2%	2.3%	19%	nt
COc1cc(C)ccc1OCc1cc(C(=O)N2C[C@H]3CC[C@H]2C3)no1	4%	-0.9%	-20%	nt
O=C(COC(=O)Cc1ccc(S(=O)(=O)N2CCOCC2)s1)Nc1ccc([N+](=O)[O-])cc1	19%	1.5%	nt	nt
Cn1cc(CN2CCN(Cc3ccc4c(c3)OCO4)CC2)c(-c2ccccc2F)n1	3%	5.9%	-8%	-2
CCn1ccnc1CNC(=O)c1cc(COc2ccc(F)cc2F)on1	-14%	-0.6%	-7%	6
CCOc1c(O)ccc(C2NC(=O)NC(C)=C2C(=O)OC)c1[N+](=O)[O-] (stereo not drawn)	1%	0.7%	1%	-5
CCn1c(SCC(=O)NNC(=O)c2ccc(OC)cc2)nnc1C1CC1	-8%	5.4%	0%	nt
Cc1ccc(C(=O)COC(=O)CNC(=O)c2cccs2)cc1C	9%	-2.1%	4%	-2

(more compounds)
SMILES	Rango release inh	Rango-impB inh	miR-21 FLuc	GLA inh pH 4.5
COC(=O)c1sc(NC(=S)NC(=O)c2cccc(C)c2)nc1C	9%	-2.8%	-18%	-13
O=C(CSc1nnc(-c2ccccn2)o1)Nc1cccc(Cl)c1	0%	-5.0%	-62%	nt
O=C(NCCc1ccccc1)/C(=C\c1ccc([N+](=O)[O-])cc1)NC(=O)c1ccco1	-5%	-4.8%	-1%	nt
O=C1OCCN/C1=C\C(=O)c1ccc(Cl)cc1	-17%	?	0%	-9
COc1ccccc1C(CNC(=O)c1ccc(OCc2c(C)noc2C)cc1)N1CCCC1 (stereo not drawn)	-10%	-3.4%	nt	nt
CC(=O)N1CCc2c(sc(NC(=O)CCS(=O)(=O)c3ccc(C)cc3)c2C(N)=O)C1	?	?	nt	nt
Cc1cc(C)c(NC(=S)NCC2CCN(C(C)c3ccccc3)C2)c(C)c1 (stereo not drawn)	14%	-2.0%	-1%	-2
CCN1CCN(c2cc(C)c3cc(NC(=O)c4cccc(OC)c4)ccc3n2)CC1	-5%	0.6%	-50%	-4
CC1=C(C(=O)Nc2ccccc2C(=O)NC2CCC(C)CC2)SCCO1 (stereo not drawn)	1%	-3.0%	-18%	nt
O=[N+]([O-])c1ccc(OCCCCN2CCCCC2)cc1	0%	6.4%	-9%	4
COc1ccc(S(=O)(=O)N2CCN(CC(=O)Nc3cc(OC)cc(OC)c3)CC2)cc1	-7%	-1.4%	2%	?
COc1ccc(C(=O)C2CCCN(C(=O)C3=CCCC3)C2)cc1OC (stereo not drawn)	14%	0.2%	-1%	-29
CCc1oc2ccccc2c1C(=O)c1cc(Br)c(O)c(Br)c1	15%	-0.9%	15%&20%	8&-11&-11
O=c1cc(C2CCCCC2)[nH]c(=O)[nH]1	14%	0.0%	nt	nt
Cc1ccc(CNC(=O)CCc2cn(C)c3ccccc23)cc1	-5%	-1.0%	-6%&-7%	nt

Assay outcomes as filed in PubChem BioAssay.

Only part of the results is shown; the hit share may differ from the screen's.
